# MT1-MMP act inh: blockers of MT1-MMP proenzyme processing, primary screen, HT1080 RFP-PRO-GFP cells, GFP/RFP fluorescence; Matrix metalloproteinase-14 (Homo sapiens), P50281; GFP/RFP ratio fluorescence, overnight; percent of plate control window, DMSO zero; GFP/RFP ratio change, % at 20 µM; hit rate 0.061% among 360,000; AID 651647, 2012;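 active = GFP/RFP ratio change of at least 30% with cell ATP level not reduced by more than half and red fluorescence within 50% of control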; also: strong numbers were not always called active
#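 Material – HT1080 RFP-PRO-GFP cells · Control set – DMSO wells and RFP-L50D-GFP cells · Incubation – overnight cell settling, then overnight compound exposure, 37 °C, 5% CO2 · Compound dosing – single-point 20 µM compound, 1% DMSO · Read-out – GFP/RFP fluorescence ratio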
# eIF4H inh: human eIF4H binding inhibitors, primary screen, translation initiation inhibitor project, biochemical, uHTS, fluorescence polarization | Eukaryotic translation initiation factor 4H (Homo sapiens), Q15056 | eIF4H fluorescence polarization binding assay | inhibition, % at 35 µM | hit rate 0.94% among 290,000;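 active = 50% or more with normal probe brightness, or confirmed in later tests; inconclusive = above 50% with abnormal brightness, or retests that disagree; inactive = below 50% or failed in later tests; about a fifth of its hits are not listed in these tables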;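 also: calls also rest on retests at 20 µM and on dose response follow-up; 0% = protein and probe with vehicle and 100% = probe without protein; strong numbers were not always called active; many hits fall short of the cut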
# Yeast UUG start: modulators of yeast start codon fidelity, primary screen, whole organism, S. cerevisiae, single point, plate reader; hit rate 0.13% among 350,000; activity score, % at 18.7 µM; AID 602363, 2012; S. cerevisiae UUG-firefly luciferase reporter, luminescence/redox ratio;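 active = replicate mean at a twofold rise or more, about +100% in these data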;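 also: firefly luciferase made from a UUG start codon reports start codon fidelity; reporter light over untreated wells divided by growth signal over untreated wells; some hits fall short of that in this replicate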
# HIV Env fusion: inhibitors of HIV-1 Env-driven cell-cell fusion, primary screen, HeLa-JRFL effector, CEM21 target cells, luciferase; AID 651610, 2012; inhibition, % at 12.3 µM; hit rate 1.1% among 360,000;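 active = mean replicate inhibition score of at least 50 and every replicate individually at or above 50; inconclusive = only one of the two criteria met; inactive = mean below 50 and not all replicates reaching 50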;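 also: 0% = plate neutral controls and 100% = maraviroc near 300 nM; one replicate is shown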
# CSC inhib: cancer stem cell viability inhibitors, primary screen, luminescence; cancer stem cell-like cells viability; inhibition, % at 7.5 µM; hit rate 1.1% among 300,000; AID 2717, 2010;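 active = mean at 75% or more and at least half the replicates too; inconclusive = mean and replicates disagree; tested in HMLE shEcad cells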;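 also: 0% = median of negative and 100% = median of positive control wells; the first replicate is given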
# Rce1 inhib: yeast Rce1p protease inhibitors, primary screen, biochemical, fluorescence, cell-free homogeneous; CAAX prenyl protease 2 (Saccharomyces cerevisiae (strain ATCC 204508 / S288c)), Q03530; yeast membranes, quenched prenylated peptide cleavage fluorescence; calls only; hit rate 0.27% among 290,000; AID 2563, 2010;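 active = fall in fluorescence gain of 50% or more versus controls, with final raw signal at or below 3038400; inconclusive = same 50% fall but final raw signal above 3038400; inactive = fall in fluorescence gain under 50%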;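 also: plate controls were neutral control wells for no effect and wells lacking membranes for full effect; tested at 10 µM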
# Target sequence (Q03530 whole entry, looked up): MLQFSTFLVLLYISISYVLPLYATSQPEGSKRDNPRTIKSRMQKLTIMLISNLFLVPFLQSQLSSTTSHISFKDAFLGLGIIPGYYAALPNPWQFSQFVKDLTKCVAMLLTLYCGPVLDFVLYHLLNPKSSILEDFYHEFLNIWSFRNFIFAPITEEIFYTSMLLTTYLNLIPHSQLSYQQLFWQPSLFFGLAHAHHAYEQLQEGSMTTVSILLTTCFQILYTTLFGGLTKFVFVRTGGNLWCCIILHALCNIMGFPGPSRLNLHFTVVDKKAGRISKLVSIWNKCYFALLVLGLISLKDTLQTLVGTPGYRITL
# PABP polyA inh: PABP poly(A) RNA binding inhibitors, primary screen, biochemical, fluorescence polarization, uHTS | hit rate 1% among 290,000 | inhibition, % at 35 µM;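 active = 50% or more with normal probe brightness, or confirmed in later tests; inconclusive = above 50% with abnormal brightness, or retests that disagree; inactive = below 50% or failed in later tests; about a fifth of its hits are not listed in these tables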;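 also: calls also rest on retests at 20 µM and on dose response follow-up; controls were probe without protein and protein plus probe with vehicle; some compounds called inactive have numbers as strong as hits; many hits fall short of the cut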
# eIF4H inh retest: second read-out of eIF4H inh, no call of its own (marks repeat the call); inhibition, %; compound at 20 µM; confirmation average;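 mean of two retest wells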
# PABP polyA inh retest: recorded beside PABP polyA inh, whose call it bears; inhibition, %; compound at 20 µM; confirmation repeats;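 mean of two retest wells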
# MT1-MMP act inh RFP: also measured in MT1-MMP act inh; calls as there; RFP signal change, %; measured here: RFP expression control read;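 0 = vehicle wells; hits needed this value within 50% of zero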
# An asterisk follows results filed as active; i = inactive; ? = inconclusive; nt = not tested or not shown.
SMILES,MT1-MMP act inh,MT1-MMP act inh RFP,eIF4H inh,Yeast UUG start,HIV Env fusion,CSC inhib,Rce1 inhib,PABP polyA inh,others
Cc1ccc(N2CCN(C(=O)N3CCCC3)CC2)cc1C,-1,-3,4,-9,-34,-5,i,-5,
CCCn1ncc(CN2CCN(Cc3ccsc3)C(CCO)C2)c1C (stereo unspecified),2,2,7,-4,10,10,i,-8,
O=C(c1noc2c1CSc1ccccc1-2)N1CCN(c2ccc(Cl)cc2)CC1,2,2,2,nt,7,15,i,-11,
Cn1c(=O)c(C(=O)COc2ccc(C#N)cc2)c(N)n(Cc2ccccc2)c1=O,3,0,-4,-13,17,-8,i,-12,
CSCC[C@H](NC(=O)OC(C)(C)C)C(=O)N1CCC(C(=O)NCC(=O)Nc2ccc(C)cc2)CC1,3,6,1,-5,-4,-5,i,-9,
COCCNC(=O)C(=O)NNC(=O)c1ccccc1OC,-4,1,71,nt,6,-14,i,-7,eIF4H inh retest=1;PABP polyA inh retest=15
O=C1C2C3C=CC(C3)C2C(=O)N1CCN1CCN(S(=O)(=O)c2ccc3ccccc3c2)CC1 (stereo unspecified),nt,nt,13,-12,9,60,i,0,
CCCCn1c(SC(C)C(N)=O)nc2cc(C(=O)OC)ccc2c1=O (stereo unspecified),10,-7,11,-12,nt,-17,i,5,
CSc1[nH]c(=O)c(C(=O)O)cc1C#N,10,9,14,0,nt,3,i,1,
O=C(CN1N=C(c2ccc(Cl)cc2)CCC1=O)NCc1cccs1,nt,nt,9,nt,nt,0,i,-2,
CC1(C)OC(=O)C(=CNc2cccc(C(=O)O)c2)C(=O)O1,8,2,-3,-17,-13,-11,i,1,
COc1cc(NC(=O)c2ccc(Cl)cc2)c(OC)cc1NC(=O)CN1CCCCC1,5,4,-6,nt,14,-2,i,7,
CSc1ccccc1NC(=O)C(C)N1C(=O)c2ccccc2S1(=O)=O (stereo unspecified),1,2,nt,-3,-4,2,i,nt,
CS(=O)(=O)N1CCN(c2ccccc2NC(=O)c2cc(Br)ccc2Cl)CC1,0,-3,1,nt,8,nt,nt,-2,
COc1ccc(S(=O)(=O)N2CCCCCC2)cc1NC(=O)CC1OC(=O)c2ccccc21 (stereo unspecified),1,-5,nt,nt,9,-4,i,nt,
Cc1ccc(S(=O)(=O)/N=C(\c2ccccc2)N(C)S(=O)(=O)c2ccc(C)cc2)cc1,3,5,-11,11,nt,7,i,-1,
O=C(c1cc(COc2ccc(F)cc2Cl)on1)N1CCCCCCC1,1,1,-13,17,-1,23,i,2,
COc1cccc(NC=C2C(=O)OC(C)(C)OC2=O)c1,5,1,8,-17,-34,24,i,8,
CCOCc1nnc(NC(=O)c2cccc(OC)c2)s1,-1,3,3,nt,-4,14,i,0,
FC(F)(F)c1nc(Sc2ncccc2C(F)(F)F)n[nH]1,-2,-2,2,-11,-8,-4,i,-9,
c1ccc2c(c1)CCCC2C1=NCCN1 (stereo unspecified),0,4,-6,-17,11,-8,i,-6,
CCOC(=O)N/N=C/c1ccc(OCCSc2ccc(Cl)cc2)c(OC)c1,-2,-15,-14,nt,-54,25,i,-7,
O=C(CSc1ncn[nH]1)Nc1cccc2ccccc12,-2,-1,0,2,-20,6,i,-16,
C=CCn1c(SCC(=O)Nc2ccccc2OC)nnc1-c1ccccn1,1,0,7,-5,-22,nt,i,-15,
CCc1ccc2c(c1)c(N=NC1=NC(=O)CS1)c(O)n2C,5,2,-5,-22,nt,-10,i,0,
NC(=O)c1cccn(Cc2ccc(C(F)(F)F)cc2)c1=O,6,-6,-10,-9,1,-2,i,10,
CCC(C)(C)NC(=O)C(c1cccc(OC)c1OC)N(CCOC)C(=O)CCC(=O)Nc1cc(C)on1 (stereo unspecified),-2,-1,-9,-3,10,nt,i,6,
CCOC(=O)c1sc(N2C(=O)C(O)=C(C(=O)c3ccco3)C2c2ccco2)nc1C (stereo unspecified),-4,7,22,-12,13,-7,i,26,
O=C(NCCc1cccs1)c1ccc(Cl)cc1,-2,-2,-4,nt,-10,-2,i,0,
O=C(C1CC(=O)N(c2ccc(Cl)cc2)C1)N1CCN(Cc2ccc3c(c2)OCO3)CC1 (stereo unspecified),3,-2,5,-14,0,nt,i,4,
Cc1ccc(SCC(=O)OCn2nnc3ccccc3c2=O)cc1C,2,7,5,-6,5,-9,i,-11,
CN(CCc1ccccc1)C1CCCN(S(=O)(=O)CC(F)(F)F)C1 (stereo unspecified),4,1,2,-19,0,9,i,9,
S=C(Nc1cccc(Cl)c1)N1CCOCC1,0,7,-9,-16,nt,-2,i,-8,
CC(C)CN1C(=O)c2ccc(NC(=O)c3ccccc3F)cc2C1=O,4,-2,9,-17,-46,nt,i,-3,
S=c1[nH]nc(Cc2noc3ccccc23)n1-c1ccccc1,-2,1,-6,-19,6,8,i,-5,
c1ccc(OCCCc2nc(-c3ccncc3)no2)cc1,-2,0,3,-4,nt,-10,i,-2,
COc1ccc(S(=O)(=O)NC(N)=NCCc2ccccc2OC)cc1,6,6,-3,-9,-14,2,i,-9,
N#CCc1nc2ccccc2c(=O)[nH]1,-20,13,-1,-8,8,7,i,7,
NC(=O)c1cc([N+](=O)[O-])ccc1NCc1cccc2ccccc12,4,-2,nt,-22,?,nt,nt,nt,
C1=C(CCNCC2CC2)CCCC1,0,3,0,-5,nt,-10,i,4,
CCOC(=O)/C(C#N)=N\Nc1cc(Cl)ccc1OC,0,-6,?,nt,-15,-5,i,?,
CCn1c(-c2cc(Br)ccc2O)n[nH]c1=S,11,1,nt,-15,nt,-12,i,nt,
Cc1cccc2sc(NS(=O)(=O)c3ccccc3)nc12,-2,4,2,-9,2,-5,i,-1,
O=C(CSc1nnc(Cc2ccccc2)o1)NC1CC2CCC1C2 (stereo unspecified),-1,1,0,-22,nt,-13,nt,-6,
Cc1ccc(C)c(NC(=O)COC(=O)c2cccc3c2C(=O)c2ccccc2C3=O)c1,2,-7,-8,-7,27,29,i,16,
C=CCc1ccc(OCCCNCc2ccccc2)c(OC)c1,-1,-4,2,-14,48,-6,i,2,
N#Cc1ccc(OCC(=O)N/N=C(\CCC(=O)O)c2cccs2)cc1,2,1,-2,nt,-4,-10,i,-5,
CN1CCN(c2ccc(Cl)cc2NC(=O)c2ccc(S(=O)(=O)N3CCCCCC3)cc2)CC1,-6,-10,-13,5,-108,30,i,3,
O=C(O)/C=C\C(=O)Nc1ccc(N2CCN(c3ccc(Cl)c(Cl)c3)CC2)cc1,11,3,26,1,15,85*,i,16,
O=C(Cn1nnc(-c2ccccc2NC(=O)c2ccco2)n1)NC1CCCCC1,14,4,-6,-25,nt,-7,nt,-15,
CCOC(=O)C1=NNC2(CC(=O)N(c3cc(C)cc(C)c3)C2=O)C1 (stereo unspecified),-3,4,10,nt,2,-3,i,0,
Cc1cc(OC(C)C(=O)NC2CCN(Cc3ccccc3)CC2)c2c(C)cc(=O)oc2c1 (stereo unspecified),5,1,5,-17,nt,1,i,-4,
CCc1nc2c(OCc3cccc(Cl)c3)cccn2c1N(C)C(=O)c1ccco1,-12,-7,nt,-20,i,nt,nt,nt,
OCCN1CCN(CCOc2ccccc2-c2ccccc2)CC1,4,3,-3,-6,nt,31,i,11,
Cc1ccc(C(=O)N/C(=C/c2ccccc2)C(=O)NCC2CCCO2)cc1 (stereo unspecified),-1,2,-3,-11,-36,-8,i,-3,
COc1ccc(NS(=O)(=O)c2ccc(C)c(C(=O)N(C)Cc3ccc(OC)cc3OC)c2)cc1,-2,-5,nt,-13,-423,3,i,nt,
C[C@@H](NC(=O)Cn1cnc2c(NCc3ccccc3)ncnc21)c1cccc2ccccc12,4,-3,nt,-23,-13,nt,nt,nt,
CCCC12CN3CC(C)(CN(C1)C31CCCCC1)C2=O,6,6,-5,nt,nt,0,i,-9,
COc1ccc(NC(=O)CSc2nn3c(=O)c(C)nnc3s2)cc1,-2,3,-3,-7,-18,-13,i,-5,
CCCn1c(Cc2ccccc2)nnc1SCC(=O)N1CCOCC1,0,2,1,-15,3,9,i,-6,
# Continued:
SMILES,MT1-MMP act inh,MT1-MMP act inh RFP,eIF4H inh,Yeast UUG start,HIV Env fusion,CSC inhib,Rce1 inhib,PABP polyA inh,others
O=C(NCc1ccccc1)c1cc(C2CCCN(C(=O)C3CC3)C2)on1 (stereo unspecified),1,4,nt,-8,-12,nt,nt,nt,
Cc1ccc(/C=C/c2ccc(=O)n(Cc3ccc(Cl)cc3Cl)n2)cc1,-2,-7,-3,-6,nt,-9,i,-6,
C=CCNC(=O)c1ccccc1NC(=O)C1COc2ccccc2O1 (stereo unspecified),2,6,-2,-1,7,7,nt,2,
COc1ccc2c(c1)OC[C@H]1[C@H]2N2C(=O)c3cc(F)ccc3NC(=O)[C@@]2(C)[C@H]1c1ccccc1,-11,-12,nt,-15,-1,41,nt,nt,
CN(C)C(=O)c1ccc(-c2cc(C(F)(F)F)nn2C)s1,3,3,-4,-10,-45,-2,i,-5,
O=S(=O)(c1ccc2ccccc2c1)N1CCc2ccccc21,-2,-11,2,3,29,nt,i,-11,
O=C(CC1C(=O)NCCN1CC1CCCCC1)NCc1ccccc1Cl (stereo unspecified),-3,-1,6,nt,-40,-6,i,3,
O=C(Nc1ccccc1)c1cccc(Cn2cc(C(F)(F)F)ccc2=O)c1,6,-3,-9,nt,2,-3,i,-2,
O=C(Oc1ccccc1)c1cccc(N2C(=O)CCC2=O)c1,3,3,3,-7,nt,-5,i,-5,
Cc1ccc(S(=O)(=O)NCC(c2ccccc2)N2CCN(c3ccc(F)cc3)CC2)cc1 (stereo unspecified),0,-3,-1,3,7,nt,i,-2,
COc1ccc(S(=O)(=O)N2CCN(Cc3ccco3)CC2)cc1,2,-2,8,-9,-4,9,i,3,
CCCCc1ccc(Nc2nc(N3CCOCC3)nc(N3CCOCC3)n2)cc1,-5,-6,-1,9,-2,1,i,10,
COc1ccccc1N1CCN(C2CCCN(Cc3cc(F)cc(F)c3)C2)CC1 (stereo unspecified),0,3,-4,-10,11,11,i,4,
CCCCNC(=O)c1ccc2nc(CC)c(N(C)Cc3cccs3)n2c1,9,-3,nt,-18,0,nt,nt,nt,
CC(C)n1c(SCC(=O)NC2CCCCC2)nnc1-c1ccco1,3,4,-4,-10,8,-2,nt,-1,
CN1CCN(C(=O)CSc2nnc(COc3ccc(Cl)cc3)o2)CC1,-2,-2,12,nt,-4,12,i,11,
O=P1(O)C=C(c2ccccc2)OC(c2ccccc2)=C1,-1,8,6,7,21,2,i,11,
Cc1nc2nc(NCc3cccs3)nn2c(C)c1Cl,-1,-1,1,-18,-30,-9,i,-4,
CCCNS(=O)(=O)c1ccc(OCC(=O)N2CCc3ccccc3C2)c(C)c1,4,-6,-4,-7,8,3,i,8,
O=C(c1ccc(Cl)c(S(=O)(=O)NCc2ccccc2)c1)N1CCN(c2ccccn2)CC1,-9,-9,-5,-23,nt,17,i,-7,

# Compound activity as filed in PubChem.

# The list is partial; the hit share may differ from the screen's.
